Assay outcomes deposited in PubChem BioAssay by ICCB-Longwood Screening Facility, Harvard Medical School.
Mtb MbtI inh – blocks the Mycobacterium tuberculosis siderophore enzyme MbtI; 0.89% of 100,000 active; AID 493033; inhibition, %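 (about 17 µg/mL by stock and volumes)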; P9WFX0; purified MbtI enzyme, fluorescence intensity read-out;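 active = above 50% in both replicates, above 80% if mildly self-fluorescent; inactive = the rest, strongly fluorescent compounds included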;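 note: 0% = mean of negative and 100% = mean of positive controls; one replicate is shown; some compounds called inactive have numbers as strong as hits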
MenB inh – Mtb MenB enzyme inhibition; AID 540299; inhibition, %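 (about 12 µg/mL by stock and volumes)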; MenB enzyme assay, absorbance read-out; some hits fall short of the stated cut; 0.43% of 100,000 active;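 active = mean of two replicates above 30%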;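 note: 0% = no compound and 100% = wells with inactive enzyme; the first replicate is given; strong numbers were not always called active; inactives centre near -10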
Target sequence (P9WNP5 whole entry, looked up): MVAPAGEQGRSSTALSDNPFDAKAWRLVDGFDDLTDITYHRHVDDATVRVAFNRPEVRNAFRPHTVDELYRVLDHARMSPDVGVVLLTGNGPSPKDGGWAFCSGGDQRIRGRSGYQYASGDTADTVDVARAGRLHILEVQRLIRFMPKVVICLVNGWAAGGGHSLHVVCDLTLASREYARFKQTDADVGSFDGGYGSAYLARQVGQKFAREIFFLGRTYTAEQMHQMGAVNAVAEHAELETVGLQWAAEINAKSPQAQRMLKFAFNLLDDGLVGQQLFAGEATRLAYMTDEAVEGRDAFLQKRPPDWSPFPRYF
Polio RdRp inh – inhibitors of poliovirus RNA polymerase binding and polymerization; P03300; % elongation, % (compound at 16.7 µg/mL); AID 588519; poliovirus polymerase elongation, fluorescence polarization; stronger effect = lower value; 0.66% of 150,000 active; in the data active = % elongation below about 90%; note: some results filed as inactive read as strong as hits
Target sequence (P03300 1749-2209 limits assumed): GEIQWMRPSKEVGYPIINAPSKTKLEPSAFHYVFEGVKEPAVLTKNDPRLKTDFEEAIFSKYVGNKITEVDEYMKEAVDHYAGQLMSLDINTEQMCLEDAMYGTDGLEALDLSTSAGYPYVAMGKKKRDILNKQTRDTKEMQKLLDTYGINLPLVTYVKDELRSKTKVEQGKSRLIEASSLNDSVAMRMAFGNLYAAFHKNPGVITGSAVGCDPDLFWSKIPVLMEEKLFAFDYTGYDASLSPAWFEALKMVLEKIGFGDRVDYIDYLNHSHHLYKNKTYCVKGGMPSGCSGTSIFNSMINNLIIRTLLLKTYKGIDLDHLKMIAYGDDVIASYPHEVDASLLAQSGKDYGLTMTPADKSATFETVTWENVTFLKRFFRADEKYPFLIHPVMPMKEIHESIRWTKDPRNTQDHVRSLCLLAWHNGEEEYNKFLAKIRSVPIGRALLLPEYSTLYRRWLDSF
Polio RdRp inh intensity – second read-out of Polio RdRp inh, no call of its own (marks repeat the call); % elongation; measured here: total intensity read-out; formula for this scale not given here;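 total fluorescence in place of polarization; lower means less elongation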
An asterisk follows results filed as active; nt = no result given; & = joins results of further samples.

SMILES	Mtb MbtI inh	MenB inh	Polio RdRp inh	Polio RdRp inh intensity
O=C(O)CCCC(=O)Nc1cccc(C(F)(F)F)c1	nt	2	104	109
O=C(O)c1ccc(N=Cc2ccc(OC(=O)c3sc4ccccc4c3Cl)cc2)cc1	nt	-13	105	112
CCn1cc(/C=N/NC(=O)Cc2ccc3c(c2)OCCO3)c2ccccc21	28	-16	112	108
Cc1cc(-c2ccc(C(=O)O)s2)c[nH]c1=O	105	1	104	105
CCCCC(CC)C1OCC(CN2CCCC2)O1 (configuration not stated)	-4	-2	101	101
COC(=O)c1ccccc1NC(=O)C1CCCCC1C(=O)O (configuration not stated)	106	-8	102	105
c1ccc(-c2ccc(COc3ccc(-c4nnco4)cc3)cc2)cc1	-3	3	107	109
C=CC1OCC2(CO1)C(C)C=C(C)CC2C (configuration not stated)	-2	-10	101	101
CC(C)C1N(C(=O)CN2CCN(C)CC2)CCCN1S(=O)(=O)c1ccccc1 (configuration not stated)	0	-14	104	103
CC1CCN(C(=O)Cc2noc3ccccc23)CC1	-6	-2	103	107
COc1ccccc1C1OC(=O)C[C@H]1C(=O)Oc1cccc(C(F)(F)F)c1 (some centres not stated)	-3	-9	97	89
CCOC(=O)c1cc2sccc2n1CC(=O)OC	12	1	102	100

Next part
SMILES	Mtb MbtI inh	MenB inh	Polio RdRp inh	Polio RdRp inh intensity
Cn1cccc1C(=S)NC(=O)Nc1ccccc1Cl	16	4	100	105
CN(/N=C/c1ccncc1)C1=NCCN1	2	8	104	105
C=C/C=C(\C=C(C)C)N(C(=O)NC1CCCCC1)C1=NCCCS1	-1	29*	102	102
CC(C)NC(=S)N/N=C/c1ccc(N2CCOCC2)cc1	-33	-4	100	104
O=C(Nc1ccc2c(c1)CCC2)c1cc(=O)[nH]c2ccccc12	-6	nt	99	99
COc1cccc(CNC(=O)CCCc2cccs2)c1	-5	-20	101	105
CCOC(=O)c1sc(N)c(C#N)c1CSc1nnc(Nc2c(C)cccc2C)s1	-2	-25	128	145
CN(C)c1ccc(/C=C(/NC(=O)c2ccccc2)C(N)=O)cc1	-2	-245	104	105
CC(c1ccccc1)n1cc(C(=O)NCCCN2CCCC2=O)nn1 (configuration not stated)	4	-35	101	102
COc1ccc(O)c(C(=O)c2cc(C#N)c(=O)n(C(C)C)c2)c1	0	-20	101	101
Cc1ccc(CNCc2ccc(C(=O)O)s2)cc1	-1	11	101	103
O=C(NCCOc1ccccc1)c1ccc(=O)[nH]c1	nt	3	99	103

Following part.
SMILES	Mtb MbtI inh	MenB inh	Polio RdRp inh	Polio RdRp inh intensity
O=C(CN1CCc2ccccc2C1)c1ccc(OC(F)F)cc1	12	-12	113	135
O=C(Nc1nc2ccccc2s1)c1cnccc1C(F)(F)F	-1	-14	103	104
CCOc1ccc(C(=O)CSc2nc3c(c(=O)n(C)c(=O)n3C)n2C(C)C)cc1	-8	-3	101	101
Nc1c(C(=O)c2ccccc2)oc2ccccc12	10	-57	97	101
COc1nccn(-c2ccccc2)c1=O	-5	-21	nt	nt
Cc1nnc(SCc2ccco2)c2c1nnn2Cc1ccc(F)cc1	15	-21	102	103
O=C(Cn1nnc(-c2cccc(C(F)(F)F)c2)n1)NCc1ccc(Cl)cc1	-5	nt	102	95
O=C1CC2(CCCC2)C(=O)N1C1CCN(c2ncc(C(F)(F)F)cc2Cl)CC1	-6	-7	106	112
O=C(c1ccccc1F)N1c2ccccc2Sc2ccccc21	nt	-8	112	110
C#CCn1c(O)c(N=NC(=O)c2cc(OC)c(OC)c(OC)c2)c2ccccc21	-17	-45	103	102
CCc1cc(=O)oc2cc(OC3CCCCC3=O)ccc12 (configuration not stated)	-251	nt	105	107
CCCCn1c(=N)n(CC(=O)OCC)c2ccccc21	-11	-26	100	101

The list goes on:
SMILES	Mtb MbtI inh	MenB inh	Polio RdRp inh	Polio RdRp inh intensity
CCn1c(C)cc(O)c(C(c2cccc(OC)c2)N2CCN(c3ccc(F)cc3)CC2)c1=O (configuration not stated)	0	14	101	107
Oc1ccccc1CN1CCN(Cc2ccccc2O)C1c1ccco1	-8	-37	102	116
O=c1sc2c(n1-c1ccccc1)SCC1COc3ccccc3C21 (configuration not stated)	21	-17	95	100
CCN(CC)c1nc(NCC(=O)O)nc(NCC(=O)O)n1	-4	-2	101	100
C1CCC(OCCN2CCN(CCOC3CCCCC3)CC2)CC1	-16	-27	100	101
Nc1cc(N)nc(SCCN2CCOCC2)n1	-10	-29	102	102
CC(C)(C)NC(=O)N1CCC(C(=O)O)CC1	-5	-14	110&106	115&104
COCCNc1nc(-c2cccs2)cs1	46	-16	110	109
CC(=O)Nc1cccc(C(=O)O)c1	-16	-53	100	102
CCCN1CCC(NC(=O)Nc2cc(C)ccc2C)CC1	-9	8	100	104
O=C(CCc1ccc(S(=O)(=O)N2CCOCC2)cc1)NCc1ccncc1	13	-9	104	109
CCN1CCCC1CNC(=O)CSc1cc(=O)n(C)c2cc(Cl)ccc12 (configuration not stated)	17	-5	102	105

More compounds follow.
SMILES	Mtb MbtI inh	MenB inh	Polio RdRp inh	Polio RdRp inh intensity
CCc1ccc(NC(=O)CCn2c(=O)oc3ccccc32)cc1	-2	-24	103	103
Cc1ccc(-c2nnn(CC(=O)N(Cc3cccs3)C(C(=O)NCC3CCCO3)c3ccc(F)cc3)n2)o1 (configuration not stated)	0	-22	98	102
O=C1c2ccccc2C(=O)N1CN(Cc1ccccc1)CN1C(=O)c2ccccc2C1=O	-12	17	100	99
Cc1ccc(-n2nc(C)c(C(C)(O)C(F)(F)F)c2N)cc1 (configuration not stated)	-9	nt	99	103
COCCN1Cc2cccc(C(=O)N3CCN(C4CCCCC4)CC3)c2C1=O	-3	-5	102	99
N#C/C(=C/c1cccs1)C(=O)O	31	-3	105	107
COCc1cc(=O)[nH]c(/N=C(\N)Nc2ccc(F)cc2)n1	11	11	104	104
O=C(O)CCn1c(-c2ccc(F)cc2)n[nH]c1=S	7	12	104	96
CN(C)C(=O)COC(=O)c1cc2ccccc2oc1=O	41	-23	103	107
CN1C(=O)c2ccccc2N2C(=O)CCC12C(=O)OCN1C(=O)c2ccccc2C1=O (configuration not stated)	-3	-10	106	118
Cc1cc(OCC(=O)O)no1	-5	-6	98	105
CCN(Cc1ccncc1)C(=O)c1ccc(Cl)c(Cl)c1	-14	-30	103	104

New compounds follow.
SMILES	Mtb MbtI inh	MenB inh	Polio RdRp inh	Polio RdRp inh intensity
CC(=O)NC(c1ccccc1)c1cccnc1 (configuration not stated)	-4	-46	100	102
c1ccc(Nc2ccccn2)cc1	-89	nt	100	101
CCCCNC(=O)Nc1cc(C(F)(F)F)c[nH]c1=O	-94	12	96	92
CCN(CC)c1ccc(C(=O)c2ccccc2C)cc1	-8	-83	103	102
CC(C)NC(=O)CCSc1nc(-c2ccco2)cc(C(F)(F)F)n1	-2	10	100	104
Cc1oc(C(C)(C)C)cc1C(=O)NCc1ccc(C(=O)O)o1	nt	-9	102	105
COc1ccccc1-c1cc(C(F)(F)F)nc(NCc2ccco2)n1	46	-16	97	91
CC(C(=O)NC1CC1)N1CCC(N2CCCCC2)CC1 (configuration not stated)	-4	7	98	103
CCOC(=O)C1=C(c2ccc(OC)cc2)NC(=O)NC1c1ccc(OC)cc1 (configuration not stated)	9	1	101	95
COc1c[nH]n(C(C)(C)C)c(=O)c1=O	18	5	100	99
CCN(CC)C(=O)N(C)Cc1ccccc1	-3	-17	103	104
NCC1CCCCC1CC(=O)O (configuration not stated)	-21	-7	99	104

Next part
SMILES	Mtb MbtI inh	MenB inh	Polio RdRp inh	Polio RdRp inh intensity
O=C(c1ccco1)N1CCN(C(=O)N2c3ccccc3Sc3ccccc32)CC1	-7	-2	100	103
O=C(O)/C=C/C(=O)Nc1cn(-c2ccccc2)nc1-c1ccccc1	29	-11	102	113
CC(=O)Oc1ccc(N2C(=O)CCC2=O)cc1	-18	nt	103	106
O=C(CSc1nc2cc(Cl)ccc2o1)NC1CCCC1	-1	nt	103	107
COc1cccc(-n2cc(C(=O)NC(C)C)c3ccccc3c2=O)c1	-5	-4	104	104
COc1ccc2c(c1)CCC1C2=NN(C(C)=O)C1c1ccccc1 (configuration not stated)	0	-10	100	103
Cc1ccc(S(=O)(=O)N(C)c2ccccc2C(=O)N2CCCC2)cc1	-1	-13	100	103
COc1cc2[nH]c(=O)c(C(=O)NC3CCCC3)c(O)c2cc1OC	22	34	100	103
CC(O/N=C/c1ccc2c(c1)OCO2)C(=O)N1CCc2ccccc21 (configuration not stated)	-6	-37	102	103
S=C(NC1CCCC1)NN1CCOCC1	-8	-21	101	105
Cc1ccc(-c2csc(-n3sc4ccccc4c3=O)n2)cc1	87*	nt	99	99
CCN1CCN(Cc2ccc(NC(=O)Cc3noc4ccccc34)cc2)CC1	0	-22	105	104

The last six entries of the section before open the next one:
SMILES	Mtb MbtI inh	MenB inh	Polio RdRp inh	Polio RdRp inh intensity
Cc1ccc(S(=O)(=O)N(C)c2ccccc2C(=O)N2CCCC2)cc1	-1	-13	100	103
COc1cc2[nH]c(=O)c(C(=O)NC3CCCC3)c(O)c2cc1OC	22	34	100	103
CC(O/N=C/c1ccc2c(c1)OCO2)C(=O)N1CCc2ccccc21 (configuration not stated)	-6	-37	102	103
S=C(NC1CCCC1)NN1CCOCC1	-8	-21	101	105
Cc1ccc(-c2csc(-n3sc4ccccc4c3=O)n2)cc1	87*	nt	99	99
CCN1CCN(Cc2ccc(NC(=O)Cc3noc4ccccc34)cc2)CC1	0	-22	105	104
c1csc(-c2nnc(SCc3cscn3)n2C2CC2)c1	3	-8	105	103
CCOC(=O)/C(C#N)=C/c1ccc2c(c1)c1ccccc1n2CC	-16	-45	104	104
CCOC(=O)C1CCN(c2ccc(-c3cccs3)nn2)CC1	2	12	99	100
O=C(OCCNc1ncc(C(F)(F)F)cc1Cl)C1CCC1	-8	-11	97	99
Nc1nc(Cl)cc(Oc2ccc(Cl)cc2)n1	nt	-52	96	97
Cc1nn(-c2ccccc2)c2sc(C(=O)N=Nc3[nH]c(N)c4ccccc34)cc12	-15	-11	98	102
O=C(NCc1cccs1)C1C2C=CC3(CN(CCCN4CCOCC4)C(=O)C13)O2 (configuration not stated)	-6	-8	103	102
Cc1ccccc1N(C(=O)c1cccs1)c1nc2ccccc2s1	1	7	105	110
O=C1CSc2cc(S(=O)(=O)NN3CCOCC3)ccc2N1	11	-4	100	95
COc1cc(C(=O)OCC(=O)NC2C3CC4CC(C3)CC2C4)cc2c1OCCO2 (configuration not stated)	-2	-2	106	106
CCN(CC)S(=O)(=O)c1cccc(C(=O)N2CCCC2=C(C#N)C#N)c1	-12	3	95	99
CCc1ccc(S(=O)(=O)/N=C2\C=CC(=O)c3ccccc32)cc1	64	-41	74*	43*

Some of the entries so far, field by field:
Nc1c(C(=O)c2ccccc2)oc2ccccc12
  Mtb MbtI inh = 10
  MenB inh = -57
  Polio RdRp inh = 97
  Polio RdRp inh intensity = 101
COc1nccn(-c2ccccc2)c1=O
  Mtb MbtI inh = -5
  MenB inh = -21
  Polio RdRp inh = nt
  Polio RdRp inh intensity = nt
Cc1nnc(SCc2ccco2)c2c1nnn2Cc1ccc(F)cc1
  Mtb MbtI inh = 15
  MenB inh = -21
  Polio RdRp inh = 102
  Polio RdRp inh intensity = 103
O=C(Cn1nnc(-c2cccc(C(F)(F)F)c2)n1)NCc1ccc(Cl)cc1
  Mtb MbtI inh = -5
  MenB inh = nt
  Polio RdRp inh = 102
  Polio RdRp inh intensity = 95

Next part:
SMILES	Mtb MbtI inh	MenB inh	Polio RdRp inh	Polio RdRp inh intensity
Cc1cccc(-n2ncc3c(Nc4ccc(-c5ccccc5)cc4)ncnc32)c1	105	-49	103	102
O=C(NCc1ccccc1Cl)C1CCN(S(=O)(=O)N2CCCCC2)CC1	-7	-10	103	103
CC1=C(c2ccc(C)cc2)S(=O)(=O)NC1=NC1CCN(Cc2ccccc2)CC1	9	0	102	104
O=c1[nH]nc(SCc2ccc(Cl)cc2)c(=O)[nH]1	44	-18	101	102
COc1ccc(OC)c(CCNC(=O)Cn2ncc3c(=O)oc4ccc(C)cc4c32)c1	-7	-3	103	103
NCCCOCc1ccco1	6	12	105	105
COc1ccc(C2CC(c3ccc4ccccc4c3)=NN2C(=O)Cn2cnnc2C#N)cc1 (configuration not stated)	103	-17	103	105
O=C(CP(=O)(c1ccccc1)c1ccccc1)N1CCCCC1	0	19	102	101
O=S(=O)(c1ccc(F)c(F)c1F)N1CCN(C(=S)NC2CC3CCC2C3)CC1 (configuration not stated)	-9	-11	101	105
C/C(=N\NC(N)=O)c1csc2ccccc12	-10	-14	103	102
Cc1ccc(N2C(=O)CCC(C(=O)OCc3nnc(-c4ccccc4)o3)C2c2cccs2)cc1 (configuration not stated)	1	-20	97	104
OCC(CO)(CO)NCc1ccc(Cl)cc1Cl	-8	-40	102	96

Results in Mtb MbtI inh and Polio RdRp inh, for some of the entries so far:
Molecule	Mtb MbtI inh	Polio RdRp inh
CCN(CC)C(=O)N(C)Cc1ccccc1	-3	103
O=C(CCc1ccc(S(=O)(=O)N2CCOCC2)cc1)NCc1ccncc1	13	104
COc1ccc(OC)c(CCNC(=O)Cn2ncc3c(=O)oc4ccc(C)cc4c32)c1	-7	103
CC(C)C1N(C(=O)CN2CCN(C)CC2)CCCN1S(=O)(=O)c1ccccc1 (configuration not stated)	0	104

Outcome played no part in choosing rows; any-hit rate near 1.7%.
